# Polio RdRp inh: inhibitors of poliovirus RNA polymerase binding and polymerization. 150,000 compounds, 0.66% hits. poliovirus polymerase elongation, fluorescence polarization; active compounds read low. AID 588519. % elongation, % (compound at 16.7 µg/mL); in the data active = % elongation below about 90%; note: some results filed as inactive read as strong as hits
# Target sequence (P03300 1749-2209 limits assumed): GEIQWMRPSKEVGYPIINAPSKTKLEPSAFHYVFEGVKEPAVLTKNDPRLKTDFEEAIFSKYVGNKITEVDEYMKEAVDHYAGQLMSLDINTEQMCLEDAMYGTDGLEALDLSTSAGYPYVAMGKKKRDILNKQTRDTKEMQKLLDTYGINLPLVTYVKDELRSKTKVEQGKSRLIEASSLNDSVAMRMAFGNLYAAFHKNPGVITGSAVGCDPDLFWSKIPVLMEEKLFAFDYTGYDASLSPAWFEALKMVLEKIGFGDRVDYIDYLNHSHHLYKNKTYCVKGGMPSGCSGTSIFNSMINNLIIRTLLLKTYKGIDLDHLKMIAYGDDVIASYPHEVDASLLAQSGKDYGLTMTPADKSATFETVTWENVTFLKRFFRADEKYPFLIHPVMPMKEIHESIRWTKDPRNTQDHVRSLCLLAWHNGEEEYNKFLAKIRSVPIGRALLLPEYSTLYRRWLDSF
# Polio RdRp inh intensity: second read-out of Polio RdRp inh, no call of its own (marks repeat the call); % elongation; measured here: total intensity read-out; formula for this scale not given here;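 total fluorescence in place of polarization; lower means less elongation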
# The depositor's hits bear a star.
SMILES,Polio RdRp inh,Polio RdRp inh intensity
Nc1c(C(=O)Nc2ccc(OC(F)(F)F)cc2)sc2nc3c(cc12)N1CCC3CC1,106,105
COc1ccc(N2CCN(C(=O)CCS(=O)(=O)c3cc4c(cc3Cl)NC(=O)CO4)CC2)cc1,101,106
COc1ccccc1CNC(=O)c1ccc(CS(=O)(=O)c2ccccc2C)o1,102,101
Cc1ccc(Cc2nc3ccccc3nc2SCC(=O)Nc2cccc(C(F)(F)F)c2)cc1,107,115
COC(=O)c1sc(N2C(=O)c3oc4ccc(C)cc4c(=O)c3C2c2ccc(OC)cc2)nc1C (stereo not given),102,102
COC(=O)c1c(C)sc(-c2c(-c3cccc(Cl)c3)[nH]c3c2c(=O)[nH]c(=O)n3C)c1O,130,130
O=C1CC(c2ccccc2Br)c2c(c3ccccc3oc2=O)O1 (stereo not given),102,106
CCn1c2c(c(=O)n3ncc(C(=O)Nc4cc(Cl)ccc4C)c13)CN(Cc1ccc(OC)cc1)CC2,109,108
Cc1ccc(Cn2c(CCNC(=O)C(C)C)nc3ccccc32)cc1,104,106
COc1ccccc1OCC(=O)Nc1c(C(=O)c2ccc(F)cc2)oc2ccccc12,108,103
CC(=O)Nc1c(C)nn(-c2ccccc2)c1N1CCC(C(=O)Nc2ccc(F)cc2Cl)CC1,113,105
CCCCNC(=O)CCCN1C(=O)CCn2nc(-c3cccn3C)cc21,103,110
N#Cc1ccccc1OCC(=O)N1CCN(c2ccccc2)CC1,110,112
COc1ccc(C)cc1NC(=O)N(Cc1ccc2c(c1)OCO2)C1CCN(Cc2ccccc2)CC1,112,109
Cc1ccc(Cn2ccnc2SCC(=O)NCc2ccc(F)cc2)cc1,110,115
Cc1ccc(NC(=O)c2ccc(C)c(S(=O)(=O)N3CCCCCC3)c2)cc1,106,99
COc1ccccc1NC(=O)CN(c1ccc(C(C)C)cc1)S(=O)(=O)c1c(C)noc1C,106,112
CC1CCCCN1C(=O)CSc1nnc(-c2cccc(Cl)c2)o1 (stereo not given),110,111
CCc1ccccc1S(=O)(=O)Cc1ccc(C(=O)NCc2ccc(Cl)cc2)o1,106,107
Oc1ccc(/C=C/c2nc(-c3ccccc3O)n(-c3ccccc3)n2)c(O)c1,102,102
Oc1c(C(c2ccc(Cl)cc2)N2CCC3(CC2)OCCO3)sc2nc(-c3ccco3)nn12 (stereo not given),108,109
CC(=O)c1ccc(NC(=O)c2cc(-c3ccc(Cl)c(Cl)c3)on2)cc1,106,104
COc1ccc(NS(=O)(=O)c2ccc(NC(=O)N3CCCC3)cc2)cc1,102,100
O=C(NCCc1ccc(Cl)cc1)c1c2c(nc3ccccc13)C(=O)N(C1CCCCC1)C2,110,118
Cc1cccc(N2CCN(C(=O)CS(=O)(=O)c3cccc4nsnc34)CC2)c1C,107,101
COc1ccc(CCNC(=O)c2cc(=O)c3cc(C)c(C)cc3o2)cc1OC,106,111
Cc1ccc(NC(=O)CSc2nc3ccc(NC(=O)c4cccc(Cl)c4)cc3s2)c(C)c1,109,114
COc1ccc(C(=O)CCC(=O)Nc2ccccc2C)cc1,105,101
CCOc1ccc(C(=O)NCCc2sc3nc(-c4ccc(Cl)cc4)nn3c2C)cc1OCC,107,107
CC1CN(C(=O)N2CCC(C(=O)NC3CCCCCC3)CC2)c2ccccc2O1 (stereo not given),102,110
COc1cc(NC(=O)NCCc2c(C)nn(C)c2C)cc(OC)c1OC,105,108
CCOC(=O)Cn1nc(N2CCN(c3ccc(F)cc3)CC2)ccc1=O,110,112
Cc1cc(F)ccc1NC(=O)CCS(=O)(=O)c1cccc2nsnc12,108,109
CN(C)CCN(C(=O)c1ccco1)c1nc2c(F)cc(F)cc2s1,99,101
CCC(=O)N1CCc2cc(S(=O)(=O)CCC(=O)N3CCN(c4ccc(C(C)=O)cc4)CC3)ccc21,109,113
Cc1ccc2nc(Cl)c3cc(C(=O)NC4CCCCC4)sc3c2c1,100,103
CCC(=O)N1CCc2cc(Br)cc(S(=O)(=O)N3CCN(c4ccccc4)CC3)c21,101,103
Cc1cccc(N(CC(=O)NC(C)c2ccccc2)S(=O)(=O)c2ccccc2)c1C (stereo not given),96,98
Cc1cccc(NC(=O)c2c(NC(=O)c3ccccc3)sc3c2CCCC3)c1,75*,76*
Cc1cccc(CNC(=O)c2cccc(NC(=O)N3CCSc4ncccc43)c2)c1,105,102
Cc1cc(C)c(C)c(OCC(=O)Nc2ccc(S(=O)(=O)Nc3nc(C)cc(C)n3)cc2)c1,107,111
O=C(CSc1nc(=O)[nH]c2c1CCCC2)Nc1ccccc1C(F)(F)F,115,102
CCN(CC)CCNC(=O)c1[nH]c2ccccc2c1Sc1ccc(Cl)cc1,109,112
Cc1ccc(NC(=O)CCc2c(C)nc3ncnn3c2C)cc1Cl,108,112
Cc1oc(-c2ccc(C(=O)NCc3ccccc3)cc2)nc1CS(=O)(=O)c1ccccc1,101,107
Brc1ccc2nc(-c3ccccc3)c(Nc3ccc4c(c3)OCO4)n2c1,105,107
Cc1noc(/C=C/c2ccccc2F)c1S(=O)(=O)N1CCC(C(=O)Nc2ccc(C#N)cc2)CC1,111,108
Cc1ccc(NC(=O)Cn2cc(C(=O)c3ccccc3)c3ccccc32)cc1,100,97
CC1=C(C#N)C(NC(=O)c2ccccc2Cl)(C(F)(F)F)C(=O)N1 (stereo not given),106,109
Cc1ccc2[nH]c3c(=O)n(CC(=O)N4CCCCC4)ncc3c2c1,107,101
COc1ccc(-c2noc(CC(=O)Nc3ccc(F)cc3F)n2)cc1,110,103
COc1ccc(NC(=O)c2csc3c2CCCCC3)cc1,101,107
COc1ccc(CNC(=O)Cn2cccc2C(=O)c2ccccc2C)cc1,107,109
Cc1cccc(CCNC(=O)CCc2c(C)nc3c(c(C)nn3-c3ccccc3)c2C)c1,104,107
CCOC(=O)N1CCN(C(=O)c2c(C)nn(-c3cccc(C)c3)c2-n2cccc2)CC1,102,106
O=C(NCCC1=CCCCC1)c1ccc2c(c1)N(Cc1ccccc1F)C(=O)c1ccccc1S2(=O)=O,105,108
COc1ccc(Cn2c(CCC(=O)Nc3ccc(C)cc3)nc3cccnc32)cc1,101,102
CCS(=O)(=O)N1CC(=O)N(c2ccc(Cl)cc2)C(C)(C(=O)NC2CCCCCC2)C1 (stereo not given),103,99
Cc1ccc(S(=O)(=O)N2CCC(C(=O)Nc3ccc(C)c(Cl)c3)CC2)cc1,105,109
Cc1cccc(NC(=O)CSc2ncc3c(n2)-c2ccccc2N(Cc2ccc(F)cc2)S3(=O)=O)c1C,113,120

# The list continues.
SMILES,Polio RdRp inh,Polio RdRp inh intensity
O=C(CSc1nc2c([nH]c3ccccc32)c(=O)n1-c1ccccc1)Nc1ccccc1C(F)(F)F,105,111
O=C(Cn1c(=O)n(Cc2ccc(F)cc2)c(=O)c2sc3ccccc3c21)NCc1ccccc1Cl,108,107
CCOCCCn1c(=N)c(C(=O)NC(C)c2ccccc2)cc2c(=O)n3cc(C)ccc3nc21 (stereo not given),108,113
Cn1nc(-c2ccccc2F)c2cc(C(=O)NCc3ccc(Cl)cc3)sc21,104,100
COc1ccc(CNc2n[nH]c(-c3ccco3)n2)cc1OC,99,105
CCc1ccc(S(=O)(=O)c2c[nH]c3cc(OC)c(OC)cc3c2=O)cc1,101,103
CCN(CC)CCNC(=O)Cn1ncc2c3ccccc3n(Cc3ccccc3C)c2c1=O,108,111
O=C(COc1ccc(Cl)cc1)NCCc1csc(-c2cccc(F)c2)n1,105,103
CCC(=O)N1CCc2cc(Br)cc(S(=O)(=O)N3CCCC(C(=O)Nc4ccc(CC)cc4)C3)c21 (stereo not given),106,104
CCOc1ccccc1CNC(=O)C1CCN(c2nnc(C)c3c(C)n(-c4ccc(C)cc4)nc23)CC1,105,109
Cc1cccc(C)c1NC(=O)Cn1nnc(S(=O)(=O)c2ccccc2)c1N,104,107
Cc1cccc(NC(=O)CSc2nc3n[nH]c(C)c3c(=N)n2-c2cccc(Cl)c2)c1,99,100
CCOc1ccc(NC(=O)NCCN2CCN(c3cccc(C)c3C)CC2)cc1,107,109
CCCN1C(=O)c2[nH]nc(-c3cccc(OC)c3)c2C1c1ccccn1 (stereo not given),102,100
Cc1ccc(CN2CCN(C3CCN(C(=O)Nc4ccc(C)cc4Cl)CC3)C(=O)C2=O)cc1,102,106
O=C(COc1ccccc1)Nc1nnc(SCc2cc(=O)n3cc(Cl)ccc3n2)s1,104,107
CC(C)(C)c1ccccc1NC(=O)c1cnn2c(C(F)F)cc(-c3ccccc3)nc12,104,104
Cc1cc(OCC(=O)Nc2ccc(-c3nc4cc(Cl)ccc4o3)cc2)cc(C)c1Cl,100,102
Fc1ccc2c(c1)-c1c(cnc3cc(-c4ccc(Cl)cc4)nn13)CO2,106,108
COc1ccc(Cl)cc1NC(=O)c1cc2ccccn2n1,113,105
CCOC(=O)c1c(C)oc2ncnc(Nc3cc(C)cc(C)c3)c12,111,112
CC(C)Cn1c(C2CC(=O)N(c3ccccc3Cl)C2)nc2ccccc21 (stereo not given),109,116
CN(C)c1ccc(C(CNS(=O)(=O)c2cc(F)ccc2F)N2CCOCC2)cc1 (stereo not given),108,100
CCN(CC)C(=O)c1sc2c(c1C)c(=O)n(-c1ccc(OC)cc1OC)c(=O)n2Cc1cc(C)ccc1C,105,108
CCn1c(SCC(=O)Nc2cccc(Cl)c2)nnc1-c1nonc1NC(C)=O,103,96
O=C(Cn1c(SCC(=O)Nc2ccc(F)cc2)nc2ccccc21)NCc1ccc(Cl)cc1,114,111
CCCSc1ncc(Cl)c(C(=O)Nc2ccc(S(=O)(=O)N3CCCC(C)C3)cc2)n1 (stereo not given),111,113
CCN(C(=O)c1c(C)oc2ncnc(N3CCCCC3)c12)c1cc(C)ccc1C,106,103
COc1ccc(Cn2c(=O)n(-c3ccccc3C)c(=O)c3c4c(sc32)CN(C(C)=O)CC4)cc1,103,108
O=C(CN1CCN(Cc2ccccc2F)C1=O)NCc1ccccc1,112,112
O=C(Cn1c(=O)oc2cc(S(=O)(=O)NCc3ccccc3)ccc21)N(CCO)Cc1ccccc1,105,112
COc1ccc(OC)c(S(=O)(=O)NCCS(=O)(=O)N2CCN(c3ccccc3F)CC2)c1,100,105
CCOc1ccc(NC(=O)c2cccn(Cc3cccc(Cl)c3)c2=O)cc1,102,109
CC(=O)c1ccc(NC(=O)c2ncn(-c3ccccc3)n2)cc1,103,107
O=C(Cn1cccc1C(=O)c1ccccc1)NCc1ccc(Cl)cc1,109,114
CC(=O)c1ccc(NS(=O)(=O)c2ccc(-c3cc(C)no3)s2)cc1,104,102
CCc1ccccc1NC(=O)CSc1nc(-c2cccc(Cl)c2)nc2c1Cc1c(CO)cnc(C)c1O2,104,113
CC(C)c1ccc(NC(=O)Cc2ccc(NC(=O)N3CCCCc4ccccc43)cc2)cc1,100,105
O=C(CSc1oc(-c2ccccc2)nc1S(=O)(=O)c1ccc(Br)cc1)c1ccccc1,102,103
COc1ccc(Oc2ncnc3c2oc2ccccc23)cc1,112,111
O=C(Nc1ccc(F)cc1F)C1CCCN1S(=O)(=O)c1cccc2nsnc12 (stereo not given),108,109
Cc1cc(NC(=O)c2cccn(Cc3cccc(Cl)c3)c2=O)no1,108,112
O=C(NCCc1ccccc1)c1cnc2sc(N3CCCCCC3)nn2c1=O,101,108
COc1cccc(/C=C(\C#N)C(=O)Nc2ccc(NC(C)=O)cc2)c1OC,110,113
O=S(=O)(c1ccccc1)c1nnn2c1nc(Nc1ccccc1)c1cc(Cl)ccc12,108,106
CCOC(=O)c1c(Nc2ccc(C)cc2)nnc(-c2ccccc2)c1-c1ccccc1,104,105
CC(C)CCNC(=O)c1cn(C)c2ccc(S(=O)(=O)N3CCOCC3)cc2c1=O,100,104
CCc1cccc(C)c1NS(=O)(=O)c1cc(-c2cc(C)no2)ccc1C,110,111
CCOC(=O)c1cccc(NC(=O)c2cc3sccc3n2Cc2ccc(Cl)cc2)c1,109,111
CN(C)c1ccc(-c2nc3ccc(Cl)cn3c2Nc2ccc3c(c2)OCCO3)cc1,109,110
CCOc1ccc(NC(=O)c2c(Nc3ccc(OC)cc3OC)sc(C(=O)c3ccc(Cl)cc3)c2N)cc1,106,113
COc1ccc(-n2ccnc2SCC(=O)Nc2ccc3c(c2)OCO3)cc1,110,99
COc1ccc(OCC(=O)N(Cc2cccc(OC)c2)C2CCS(=O)(=O)C2)cc1 (stereo not given),108,112
Cn1c(=O)[nH]c(=O)c2c1nc(CN1CCN(c3ccccc3)CC1)n2Cc1c(F)cccc1Cl,99,102

# Not all compounds are listed; rates above refer to the full screens.
